CtBP-E1A inh: CtBP/E1A binding inhibition. AID 651724. AlphaScreen GST-E1A/His-CtBP binding, 1536-well; hits give low values; control for the full effect not named in the record. actives 0.49% (n = 340,000). activity change, % (no concentration beside the values); in the data active means activity change below about -65%; inconclusive means about -30% to -65%; inactive means above about -30%; also: % is scaled to controls: 0 for no effect and ±100 for the full control effect; compound concentration not given in the record
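In 5 uL wells, 23 nL compound meets equimolar GST-E1A and His-CtBP (5X stock 125 nM each) for 2 h, 37 °C. Beads (5X, 50 ug/mL) then 1 h, 37 °C, dark.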
PINK1 modulator: PINK1 expression modulation; actives 0.2% (n = 410,000); PINK1 immunofluorescence, high-content cytometry, 24 h; AID 624263; Potency, µM (titrated, usually from 76.6 µM), inactives show at the highest dose activation (PINK1 increase), most hits filed as activators; active = well fitted activation curve with a large enough effect; inconclusive = small, poorly fitted or top-dose-only effect; inactive = flat fitted curve, though single readings scatter; cell line not stated here;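 also: potency is read from the fitted curve at half-maximal effect; % of control where 0% means no effect; nearly all actives have a fitted effect of over 65% in size; a mitochondrial uncoupler was the plate control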
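Readout is PINK1 immunofluorescence, quantified alongside mitochondrial, cell and nuclear markers by laser-scanning microplate cytometry. Cells from a stable line were exposed to compound titrations (5 concentrations) for 24 hours, with CCCP controls.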
D2 potentiator: potentiates the human D2 dopamine receptor allosterically. potentiation, % (test concentration not listed). DiscoveRx D2 beta-arrestin cells, luminescence, 90 min; 100% = 57 uM dopamine signal. AID 624464. P14416. actives 0.23% (n = 360,000); active = potentiation of 50% or more; inconclusive = 30% to 50%; inactive = 30% or less;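 also: compound concentration not given in the record; tested on top of an EC20 dose of dopamine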
Target sequence (P14416 whole entry, looked up): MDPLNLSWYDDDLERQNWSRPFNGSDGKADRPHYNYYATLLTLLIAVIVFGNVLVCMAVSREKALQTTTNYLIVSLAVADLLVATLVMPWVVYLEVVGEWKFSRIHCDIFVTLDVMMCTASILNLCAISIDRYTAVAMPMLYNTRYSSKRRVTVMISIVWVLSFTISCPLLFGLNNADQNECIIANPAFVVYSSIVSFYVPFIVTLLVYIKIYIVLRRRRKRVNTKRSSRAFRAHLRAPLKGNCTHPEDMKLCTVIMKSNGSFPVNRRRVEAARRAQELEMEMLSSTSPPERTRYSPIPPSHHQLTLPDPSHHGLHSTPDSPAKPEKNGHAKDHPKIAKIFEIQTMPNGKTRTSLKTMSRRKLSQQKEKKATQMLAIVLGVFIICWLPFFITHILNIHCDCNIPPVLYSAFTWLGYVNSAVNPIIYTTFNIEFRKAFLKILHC
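D2 cells co-treated with compound plus 50 nM dopamine (EC20) for 90 min at 37 deg C to detect potentiation. Beta-arrestin recruitment was read as enzyme-fragment luminescence after 1 h at ambient temperature. Full response was set by 57 uM dopamine.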
D2 ag: human D2 receptor agonism in beta-arrestin assay | P14416 | DiscoveRx PathHunter D2 beta-arrestin, luminescence, 90 min; 100% = 57 uM dopamine signal | activation, % (no concentration beside the values) | actives 0.084% (n = 360,000) | AID 624465; in the data active = activation above about 40%; inconclusive = about 15% to 40%; inactive = below about 15%; also: compound concentration not given in the record; the text of the record calls up to 30% inactive
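DiscoveRx PathHunter D2 beta-arrestin cells (2,100/well) attached overnight, then compound-stimulated 90 min at 37 C in HBSS/10 mM HEPES/0.1% Tween-20 buffer; beta-galactosidase complementation read by luminescence after 1 h at ambient temperature. Dopamine 57 uM final (EC100) as control.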
TRPML1 ag: agonists of human TRPML1 channel. TRPML1-expressing cells, Ca2+ dye fluorescence, FDSS; host cell line not named in the record; reference of the full effect not given here. activation, % (no concentration beside the values). actives 0.12% (n = 410,000). AID 624414; in the data active = activation above about 50%; inconclusive = about 30% to 50%; inactive = below about 30%; also: 0% is about no effect; the text of the record puts the active cut at 80%
Target sequence (Q9GZU1 whole entry, looked up): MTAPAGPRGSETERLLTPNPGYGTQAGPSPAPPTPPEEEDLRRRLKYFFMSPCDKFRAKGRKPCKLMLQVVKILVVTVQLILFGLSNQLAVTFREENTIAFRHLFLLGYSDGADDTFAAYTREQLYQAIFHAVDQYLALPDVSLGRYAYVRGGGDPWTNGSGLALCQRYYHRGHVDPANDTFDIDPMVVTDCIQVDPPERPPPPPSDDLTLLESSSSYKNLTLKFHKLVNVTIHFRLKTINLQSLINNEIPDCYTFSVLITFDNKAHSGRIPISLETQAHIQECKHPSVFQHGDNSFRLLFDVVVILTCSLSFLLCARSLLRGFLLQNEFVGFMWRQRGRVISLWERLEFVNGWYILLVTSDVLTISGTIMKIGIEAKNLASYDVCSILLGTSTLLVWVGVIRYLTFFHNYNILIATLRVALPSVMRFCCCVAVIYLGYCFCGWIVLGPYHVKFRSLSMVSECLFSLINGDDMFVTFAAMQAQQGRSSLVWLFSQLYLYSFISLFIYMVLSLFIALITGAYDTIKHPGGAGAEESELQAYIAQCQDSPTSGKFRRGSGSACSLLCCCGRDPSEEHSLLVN
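Calcium fluorescence on an FDSS kinetic reader gave the read-out. Tet-induced TRPML1-DL cells were plated overnight, dye-loaded (Ca8 with quencher, 45-90 min, room temperature, dark), then read 110 s after compound addition, and again 110 s after 4uM final 54-4 (EC80).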
Six1-Eya2 blk: inhibitors of human Six1/Eya2 interaction; Q15475+O00167; AlphaScreen GST-Six1/His-Eya2 binding, biochemical; hits give low values; control for the full effect not named in the record; activity change, % (test concentration not listed); actives 0.56% (n = 360,000); AID 651725; in the data active = activity change below about -65%; inconclusive = about -30% to -65%; inactive = above about -30%; also: % is scaled to controls: 0 for no effect and ±100 for the full control effect; compound concentration not given in the record
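Compounds are tested against tagged Six1 and Eya2 proteins bridged by glutathione donor and nickel acceptor beads; after a one-hour incubation at 37 °C without light, AlphaScreen emission is recorded.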
An asterisk follows results filed as active; ? = inconclusive; / = not tested or not shown; [ ] = dose if it differs, or a comment.

SMILES	CtBP-E1A inh	PINK1 modulator	D2 potentiator	D2 ag	TRPML1 ag	Six1-Eya2 blk
O=S(=O)(NCCN1CCOCC1)c1ccc2c(c1)OCCO2	2	1.2%	-9	-3.2	-1.0	6
COc1ccc(CCNC(=O)c2ccc(OCC(=O)N3CCOCC3)c(OC)c2)cc1	14	0.7%	27	-4.1	-0.3	1
Cc1ccc(S(=O)(=O)NCC(=O)Nc2cccnc2)cc1C	10	0.7%	-6	-1.7	-0.6	3
CCC(C)[C@H]1CN=C(N)N1CCc1cccc2ccccc12 (stereo partly specified)	-1	?	-68	-2.7	-0.4	-1
NC(=O)N/N=C/c1cn(CC(=O)Nc2ccc(F)cc2)c2ccccc12	2	1.9%	-18	-3.2	0.6	1
CC(C)C(=O)N1N=C2CCCCC2C1(O)C(F)(F)F (stereo unspecified)	-7	0.3%	-3	3.5	0.2	0
COC(=O)Cn1nnnc1-c1nc2cc(C)c(C)cc2[nH]c1=O	5	0.1%	/	/	2.3	-6
Clc1ccc(/C=N/Nc2nnc(Cl)c3ccccc23)cc1	9	?	-2	1.4	1.4	5
CC(=O)c1cc(OC(=O)N2CCOCC2)ccc1OC(=O)N1CCOCC1	6	1.1%	0	0.1	0.3	8
O=C1CC(c2ccco2)CC(O)=C1C=Nc1ccc(Br)cc1 (stereo unspecified)	5	4.7%	8	0.5	-0.3	3
CCCn1c(=O)c2ccccc2n2c(SCc3nnc(-c4ccccc4Br)o3)nnc12	10	4.2%[38.3 µM]	-16	-2.4	1.1	-1
Cc1[nH]nc(SCC(=O)N2CCC(C)CC2)c1[N+](=O)[O-]	-1	-0.6%	2	-4.9	0.1	1

Shown in CSV form: part of the list above.
SMILES,CtBP-E1A inh,PINK1 modulator,D2 potentiator,D2 ag,TRPML1 ag,Six1-Eya2 blk
CCC(C)[C@H]1CN=C(N)N1CCc1cccc2ccccc12 (stereo partly specified),-1,?,-68,-2.7,-0.4,-1
NC(=O)N/N=C/c1cn(CC(=O)Nc2ccc(F)cc2)c2ccccc12,2,1.9%,-18,-3.2,0.6,1
CC(C)C(=O)N1N=C2CCCCC2C1(O)C(F)(F)F (stereo unspecified),-7,0.3%,-3,3.5,0.2,0
COC(=O)Cn1nnnc1-c1nc2cc(C)c(C)cc2[nH]c1=O,5,0.1%,/,/,2.3,-6
Clc1ccc(/C=N/Nc2nnc(Cl)c3ccccc23)cc1,9,?,-2,1.4,1.4,5
CC(=O)c1cc(OC(=O)N2CCOCC2)ccc1OC(=O)N1CCOCC1,6,1.1%,0,0.1,0.3,8
O=C1CC(c2ccco2)CC(O)=C1C=Nc1ccc(Br)cc1 (stereo unspecified),5,4.7%,8,0.5,-0.3,3

Continued:
SMILES	CtBP-E1A inh	PINK1 modulator	D2 potentiator	D2 ag	TRPML1 ag	Six1-Eya2 blk
CN1CCN(S(=O)(=O)c2cc([N+](=O)[O-])ccc2Cl)CC1	-18	-1.3%	28	4.5	-0.3	3
CS(=O)(=O)c1ccc2nc(NC(=O)CCNC(=O)c3ccc([N+](=O)[O-])cc3)sc2c1	-24	-0.5%	-1	8.5	0.6	11
CN1CCC(=NNC(=O)c2ccc(N(Cc3ccccc3Cl)S(C)(=O)=O)cc2)CC1	2	1.2%	2	-12	-0.6	6
CC1CN(C(=O)c2cc(S(=O)(=O)N3CCCC3)c(Cl)cc2Cl)CC(C)O1 (stereo unspecified)	9	-2.1%[38.3 µM]	-7	0.1	0.7	1
COc1cc(NC(=O)c2cc([N+](=O)[O-])ccc2N2CCOCC2)ccc1NC(=O)c1ccco1	-7	-0.8%	-9	-0.4	-0.4	-24
NS(=O)(=O)c1ccc(NC(=O)c2ccc(CSc3ccccc3)o2)cc1	7	4.0%	-20	2.3	-0.7	0
O=C(Nc1ccccc1N1CCOCC1)c1cccnc1	5	0.0%	-1	-0.9	-0.7	5
O=C(NCC(=O)N1CCOCC1)c1ccc(Cl)cc1	11	-0.4%	-22	-4.8	0.4	9
CS(=O)(=O)ON=C1CCN(S(=O)(=O)c2ccccc2)CC1	8	0.5%	-3	0.1	-0.1	-3
O=C(COc1cccc2cccnc12)N/N=C/c1ccccc1O	-25	18%	-7	3.0	-0.2	-18
CC(C)c1onc(C(=O)N2CCC(C(N)=O)CC2)c1[N+](=O)[O-]	0	0.9%	0	-0.6	0.6	1
COc1cc(NC(=O)C2CC(=O)NC3=C2C(=O)CC(C)(C)C3)c(OC)cc1Cl (stereo unspecified)	-2	0.4%	-19	1.5	-0.1	1
COc1cc(NC(=O)CCN2CCN(c3ccccc3OC)CC2)cc(OC)c1	0	2.9%	-25	-1.0	-0.7	-7
COc1ccccc1C(O)(c1ccccc1)C(CN1CCOCC1)c1ccccc1 (stereo unspecified)	/	-1.8%	-12	0.1	4.5	-15
Cn1c(=O)[nH]c(=O)c2c1nc(Br)n2CCSc1nnnn1-c1ccccc1	7	-2.0%[38.3 µM]	-11	1.8	-0.7	1
COc1ccc(NC(=O)C2C(=O)N(CCO)C3(C)CC2c2ccccc2O3)cc1 (stereo unspecified)	1	-1.8%	-8	-6.7	0.0	-10
Cc1cccc(NCC(=O)c2c(N)n(C)c(=O)n(C)c2=O)c1C	/	5.3%	-3	-4.8	0.8	0
CC(C)CNC(=S)NNC(=O)CC(C)O (stereo unspecified)	11	2.6%	0	-0.9	-0.1	12
CCOC(=O)N1CCN(C(=O)CSc2nc3c(cnn3-c3ccccc3)c(=O)[nH]2)CC1	1	2.6%	0	-3.1	0.3	2
CC1(NC(=O)c2cc(-c3cccs3)nn2-c2ccccc2)CCS(=O)(=O)C1 (stereo unspecified)	4	-1.8%	-25	-4.7	-0.5	-6
Cc1ccc(CCNC(=O)C2CCN(S(=O)(=O)N3CCC4(CC3)OCCO4)CC2)cc1	5	-0.8%[38.3 µM]	-5	0.2	0.5	5
CCCS(=O)(=O)NC(=O)C1(C)CCN(C(=O)c2cccc3ccccc23)C1 (stereo unspecified)	6	-0.1%	-10	-2.8	-0.1	9
CCCCc1nnc(NC(=O)Cn2cnc3ccccc3c2=O)s1	2	-0.1%	-1	-2.6	0.1	0
CCC1(CC)C(=O)NC(=O)NC1=NCCc1ccc(O)cc1	-1	-0.1%	7	-4.4	-0.1	7
O=C(Nc1ccccc1)c1nc[nH]c1C(=O)NCCCCCCNC(=O)c1[nH]cnc1C(=O)Nc1ccccc1	5	-0.5%	1	-3.4	0.2	1
CC[N+](C)(C)c1cccc(O)c1	4	-0.1%	11	-1.5	0.2	0
Cc1ccnn1C(C)C(=O)O (stereo unspecified)	6	-2.5%	-1	3.7	-0.2	5
O=C1C=C(c2ccoc2)N2CCC[C@H]2C1	-9	-0.4%	-8	2.3	-0.3	6
Cc1ccc(NCCC(=O)c2ccc(Br)cc2)cc1	-16	-0.5%	-13	-2.0	0.1	2
O=C(O)C1C2C=CC(C2)C1C(=O)N1CCOCC1 (stereo unspecified)	8	/	0	-0.9	0.4	9
COc1ccc(/C=C(\C#N)C(=O)NCc2cccnc2)cc1OC	-16	-2.8%	-1	1.8	1.8	-7
O=C1CSC(c2ccccc2)N1c1ccc([N+](=O)[O-])cc1 (stereo unspecified)	-2	-2.6%	-5	-0.1	-0.5	-2
CCOC(=O)N1CCN(C(=O)c2ccc3c(SCC(=O)O)c4c(nc3c2)CCC4)CC1	4	-0.4%	2	0.5	-0.5	-4
CC(=O)NCCNC(=O)C1Cc2c(-c3ccccc3)ccnc2O1 (stereo unspecified)	2	0.6%	-19	-7.3	-0.6	5
COc1ccc2[nH]c(=O)c(-c3noc(-c4ccccc4)n3)cc2c1	-12	3.3%	-13	-0.8	0.9	-15
CC1C(=NO)C(C)C(c2ccc(N(C)C)cc2)NC1c1ccc(N(C)C)cc1 (stereo unspecified)	7	3.7%[38.3 µM]	2	-1.4	-0.1	0
Cc1ccc2oc(=O)c3cc(C(=O)NCCCN4C(C)CCCC4C)sc3c2c1 (stereo unspecified)	-4	11%	-22	-1.1	-1.1	-4
N#CCSc1nc2scc(-c3cccs3)c2c(=O)n1CCc1ccccc1	-1	-3.3%	-15	-1.9	2.9	5
CCC(c1nnnn1CCc1ccccc1)N1CCN(c2ccc(OC)cc2)CC1 (stereo unspecified)	-1	-0.2%	-6	1.0	1.8	-8
Cc1ccc(-c2nc(C(F)(F)F)cc(=O)[nH]2)cc1	3	1.6%	0	-0.5	4.8	0
Cc1cccc(N2C(=O)CSC23CCCCC3)c1	/	-0.1%	-6	-5.5	1.2	2
CN(C(=O)CN1CCC(NC(=O)c2ccccc2Br)CC1)C1CCCCC1	7	1.6%	-9	2.1	-0.2	-1
C#CCOCCOCCOCCNc1nc(N2CCN(C(=O)[C@H]([C@@H](C)CC)n3cc([C@@H](N)Cc4ccc(O)cc4)nn3)CC2)nc(N2CCN(C(=O)[C@H]([C@@H](C)CC)n3cc([C@@H](N)CC(C)C)nn3)CC2)n1	/	4.3%	-17	-1.0	0.6	-12
NC(=O)c1ncn([C@@H]2O[C@H](CO)[C@@H](O)[C@H]2O)c1O	-2	2.9%	-9	-4.1	0.6	10
O=C(CCn1c(=O)c2ccccc2n(CC(=O)NC2CCCC2)c1=O)NCc1ccco1	-1	-2.5%	8	-1.4	0.0	0
Cc1cccc[n+]1CC(=O)Nc1ccc([N+](=O)[O-])cc1	-1	1.0%	-2	-4.6	0.2	0
Cc1[nH]c(N)nc(=S)c1CCCNc1ccccc1	-27	0.6%	-13	-5.9	-0.9	-19
CC1C=CCC2C(=O)N(c3ccccc3OC(=O)c3cccs3)C(=O)C12 (stereo unspecified)	3	0.2%	-5	-3.1	0.0	9
C/C(CC(=O)NCCCN1CCOCC1)=N\NC(=O)COc1ccc(Cl)cc1	15	-2.0%	-6	-1.1	-0.8	3
Cc1cccc(NC(=O)c2ccc(-c3ccccc3[N+](=O)[O-])o2)c1	-18	1.7%	-6	4.4	-0.8	?
Cc1ccc(C(c2nnnn2Cc2cccs2)N2CCN(Cc3ccc4c(c3)OCO4)CC2)cc1 (stereo unspecified)	-17	-1.6%	-11	-2.0	3.6	-24
CCC(C)(C)C1CCC2(CC1)NC(=O)N(CC(=O)Nc1cc(C(F)(F)F)ccc1N1CCOCC1)C2=O (stereo unspecified)	-12	?	11	0.3	0.0	5
CCc1ccc(C(=O)NNc2ccc(C)c(Cl)c2)cc1	6	-0.2%	-20	-9.7	-0.4	-2
Cc1ccc(S(=O)(=O)N2CCOCC2)cc1C(=O)NCCCN1CCCC1=O	2	5.0%	-4	0.0	-0.8	-14
CS(=O)(=O)Nc1cccc(NC(=O)C2Cc3c(-c4cccc(C(N)=O)c4)ccnc3O2)c1 (stereo unspecified)	-24	0.6%	-21	-3.3	-0.2	-1
COc1cc([C@@H]2CC=C(C(=O)O)[C@H](c3ccc(F)cc3)N2S(=O)(=O)c2ccc(C)cc2)cc(OC)c1OC	/	1.0%	-4	-1.2	-0.3	2
CN(N=Nc1ccccc1C(=O)O)C1CCCCC1	-2	-0.6%	-2	-10	-0.5	12
CCc1nc(Nc2ccc(NC(C)=O)cc2)c2oc3ccccc3c2n1	-7	8.6%	5	3.4	1.6	-13

Compound activity deposited in PubChem BioAssay by National Center for Advancing Translational Sciences (NCATS).
